HNF4A DNA FP: change in binding of human HNF4 alpha to DNA | P41235 | HNF4a-FITC DNA binding, fluorescence polarization, 1 h | activity change, % at 10 µM | 0.3% of 360,000 active | AID 1224865; in the data active means activity change above about 30%, passing the limit was not always enough;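 further: controls were the assay level and a saturating level of protein; the project sought stronger binding though the title names inhibitors; some compounds called inactive have numbers as strong as hits; positive values seem to mean higher polarization but the record does not say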
Target sequence (P41235 whole entry, looked up): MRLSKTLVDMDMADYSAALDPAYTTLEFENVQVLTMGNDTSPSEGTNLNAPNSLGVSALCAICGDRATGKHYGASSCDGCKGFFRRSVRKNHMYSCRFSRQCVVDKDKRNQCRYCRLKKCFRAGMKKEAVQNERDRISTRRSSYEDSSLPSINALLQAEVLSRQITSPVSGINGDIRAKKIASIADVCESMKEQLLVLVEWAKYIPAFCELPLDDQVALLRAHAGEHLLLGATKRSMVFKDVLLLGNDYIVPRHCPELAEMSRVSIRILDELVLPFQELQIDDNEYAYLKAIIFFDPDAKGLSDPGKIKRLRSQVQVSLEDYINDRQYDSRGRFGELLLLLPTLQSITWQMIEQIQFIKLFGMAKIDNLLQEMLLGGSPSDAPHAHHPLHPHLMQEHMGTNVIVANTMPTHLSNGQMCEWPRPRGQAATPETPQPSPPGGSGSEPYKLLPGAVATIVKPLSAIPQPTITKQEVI
rRNA inh HTS: inhibits bacterial ribosomal RNA function over humanized ribosomes; GFP signal change (wild-type ribosome), % (no concentration beside the values); 1.6% of 350,000 active; E. coli WT GFP vs humanized-ribosome RFP mutants, fluorescence, 24 h; hits give low values; DMSO median 0, no signal -100;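 active means significant combined selectivity score with lowered wild-type GFP, culture density cut under 30%, mutant RFP and density less affected; inactive means any of these conditions unmet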; further: one replicate is shown; some compounds called inactive have numbers as strong as hits
Vif A3G: inhibitors of Vif binding to APOBEC3G peptide, primary screen, biochemical, TR-FRET, GST-Vif 1-94, biotin-A3G peptide, dose response retest (AID 1117319); TR-FRET GST-Vif / biotin-A3G peptide binding; higher % means a stronger effect; test concentration not given here; strong numbers were not always called active; one-dose inhibition, %; IC50 in µM for titrated hits; 0.57% of 260,000 active;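 active means above the screen mean plus three standard deviations and confirmed in dose response; inconclusive means results disagree or hit not tested in dose response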;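 further: Vif residues 1-94 fused to GST binding biotinylated APOBEC3G peptide 110-148; 0% = full assay without inhibitor and 100% = GST in place of GST-Vif; retest series ran down from 100 µM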
MLL AF4-AF9 inh: blocks AF4 peptide binding to human AF9; AlphaScreen, biotin-AF4 peptide binding to FLAG-AF9; inhibition, % at 10 µM; 0.47% of 350,000 active;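 active means every replicate reaching a set inhibition limit, whatever the replicate mean, cut at about 25% in these data; inconclusive means mean inhibition reaches that limit but some replicates miss it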;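 further: 0% = plate neutral control median and 100% = total signal loss; the record names both 10 and 1 µM as test concentration; the first replicate is given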
FGF22 binding: binders of recombinant human FGF22 by thermal shift | Q9HCT0 | SYPRO orange fluorescence; percent of sucrose octasulfate shift, DMSO zero | calls only at 9.99 µM | 1.5% of 340,000 active | AID 651658;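 active means melting point raised past a set limit in the mean and every replicate; inconclusive means no clear call; three in four hits are not shown here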
Target sequence (Q9HCT0 whole entry, looked up): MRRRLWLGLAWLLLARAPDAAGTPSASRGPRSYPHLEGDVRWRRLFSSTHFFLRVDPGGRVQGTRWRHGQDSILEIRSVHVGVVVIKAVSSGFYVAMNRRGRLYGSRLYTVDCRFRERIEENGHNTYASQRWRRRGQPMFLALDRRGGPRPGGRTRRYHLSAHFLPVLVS
E coli growth: E. coli growth inhibition | Escherichia coli growth, OD600, 23 h; hits give low values | OD600 absorbance (no concentration beside the values) | 0.21% of 330,000 active | AID 1053175;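 active means OD600 absorbance below the run mean of sample wells minus 3.6 SD, in any replicate, cut at about 0.56 in these data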;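 further: stock transfer was 300 nL into about 60 µL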
ALR H2O2 inh: inhibitors of human sulfhydryl oxidase ALR | 3.8% of 290,000 active | inhibition, % (no concentration beside the values) | P55789 | purified ALR, DTT oxidation, H2O2 HRP-luminol luminescence;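 active means mean and each replicate at 75% or more; inconclusive means only one of the two met; inactive means neither met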;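 further: stock transfer was 7.5 nL into about 7.5 µL; 0% = neutral wells and 100% = wells with inactivated enzyme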
Target sequence (P55789 whole entry, looked up): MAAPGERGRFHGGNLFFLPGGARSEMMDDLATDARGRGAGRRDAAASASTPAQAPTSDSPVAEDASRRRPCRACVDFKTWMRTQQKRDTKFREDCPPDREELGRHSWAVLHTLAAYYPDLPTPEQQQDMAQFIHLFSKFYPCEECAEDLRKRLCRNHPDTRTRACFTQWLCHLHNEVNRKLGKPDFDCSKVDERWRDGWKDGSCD
rRNA inh HTS OD600: also measured in rRNA inh HTS; calls as there; OD600 change, %; measured here: OD600 growth;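 optical density of the mix in the first replicate; 0 = DMSO median and -100 = no signal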
rRNA inh HTS RFP: recorded beside rRNA inh HTS, whose call it bears; RFP signal change, %; measured here: RFP humanized mutant strains;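 first replicate; 0 = DMSO median and -100 = no signal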
* = called active by the depositor; i = inactive; ? = inconclusive; nt = not tested or not shown.

SMILES	HNF4A DNA FP	rRNA inh HTS	rRNA inh HTS OD600	rRNA inh HTS RFP	Vif A3G	MLL AF4-AF9 inh	FGF22 binding	E coli growth	ALR H2O2 inh
O=C(COC(=O)c1ccc2c(c1)S(=O)(=O)c1ccccc1C2=O)NC1CC1	4.0	2.3	-3.7	-3.2	-5.8%	0.2	i	0.687	nt
CC1(C)CC2CC(C)(CN2CC(=O)C(C#N)c2ccccc2)C1 (configuration not stated)	-5.0	nt	nt	nt	3.1%	nt	nt	0.696	0.8
Cc1ccc(Sc2c(C)nn(C(=O)CNS(=O)(=O)c3ccc(F)cc3)c2C)cc1	0.5	-16.0	-25.3	-5.2	3.0%	-0.9	i	0.659	-0.2
Cc1ccc(C2=NOC(c3nnc(-c4ccccc4)o3)C2)cc1 (configuration not stated)	0.8	2.3	4.7	-8.8	nt	-2.9	i	0.661	nt
CCNc1ccc2noc3c2c1C(=O)c1ccccc1-3	-89.3	nt	nt	nt	4.1%	nt	nt	0.867	-1.8
CCCCC(=O)Nc1nnc(-c2ccco2)o1	1.0	14.4	4.4	0.9	-7.2%	-0.6	i	0.705	-4.3
COc1ccc(-c2cc(C(=O)NNC(=O)c3csc(N4CCOCC4)n3)c3ccccc3n2)cc1	-2.9	-26.9	-23.9	0.4	2.2%	10.8	i	0.699	-3.2
Cc1ccc(C(OCC(C)(C)C[N+](C)(C)C)c2ccccc2)cc1 (configuration not stated)	-4.3	-60.5	-78.0	-23.1	18.9%	-16.6	i	0.654	nt
CC(C)(C)c1cc(C(=O)N/N=C/c2ccc([N+](=O)[O-])s2)n[nH]1	0.2	nt	nt	nt	4.8%	0.2	i	nt	nt
COc1cccc(S(=O)(=O)N2CC[C@H]3[C@H](CO)Nc4ccc(C#Cc5ccccc5)cc4[C@H]32)c1	nt	2.5	22.4	2.9	nt	0.6	i	nt	nt
O=S(=O)(c1ccc(Cl)s1)N1CCC2(CC1)OCCO2	-5.7	4.5	-9.1	-1.0	nt	-0.6	i	nt	-11.6
COc1ccc(NC(=O)Nc2cccc3c2O[C@@H](CN(C)Cc2ccc4c(c2)OCO4)[C@@H](C)CN([C@H](C)CO)C3=O)cc1	nt	0.8	-8.0	-1.4	nt	3.5	i	nt	nt
C#CCO[C@@H]1C[C@H](n2cnc3c(=O)[nH]c(NC(=O)C(C)C)nc32)O[C@@H]1CO	-0.2	-1.8	5.5	0.9	nt	-1.8	i	nt	3.4
COc1ccccc1NS(=O)(=O)c1cccc(NC(=O)c2nn(C)c(=O)c3ccccc23)c1	-0.7	0.5	-22.4	5.6	-4.0%	1.3	i	0.68	-1.2
COc1ccccc1NC1=C(Cl)C(=O)N(C2CCCCC2)C1=O	-0.2	nt	nt	nt	28.4%	nt	nt	0.665	7.5
COC(=O)[C@]1(C)N[C@H](CN(C)C(=O)C2CCCCC2)[C@@H]2C(=O)N(Cc3ccccc3)C(=O)[C@@H]21	-2.4	1.4	-5.5	0.2	0.7%	-1.9	i	0.725	nt
O=C1C=CN2CCOCC2C1 (configuration not stated)	1.8	7.9	6.6	0.3	nt	nt	i	0.66	-0.8
CCOC(=O)C[C@@H]1OC[C@H](Cc2ccccc2)N1S(=O)(=O)c1ccc(C)cc1	-0.6	nt	nt	nt	nt	-3.3	i	nt	nt
COc1ccc(-c2noc(CCC(=O)NCc3ccco3)n2)cc1	-0.8	0.7	-5.5	-1.3	6.1%	0.1	i	0.606	-2.8
COc1ccc(OCC(=O)N/N=C(\CCC(=O)O)c2cccs2)cc1	3.1	14.5	5.7	8.6	-2.1%	-2.4	i	nt	16.5
Clc1ccc(OCCCCSc2ncccn2)cc1	0.7	nt	nt	nt	-3.5%	nt	nt	0.676	-7.1
C[C@H]1CN([C@@H](C)CO)C(=O)Cc2cc(NC(=O)Nc3ccc(F)cc3)ccc2O[C@H]1CN(C)S(=O)(=O)c1cccs1	nt	-4.1	-14.4	1.0	nt	4.1	i	nt	nt
C[C@@H]1CN([C@H](C)CO)C(=O)c2cc(NC(=O)c3ccccc3)ccc2O[C@@H](C)CCCCO[C@H]1CN(C)S(=O)(=O)c1ccc(F)cc1	nt	-1.0	-2.1	-0.4	nt	1.3	i	nt	nt
O=C(C1CCN(S(=O)(=O)c2cccc3cccnc23)CC1)N1CCCC1	3.0	1.2	1.8	0.1	?	-0.1	i	0.717	16.6
CN(CC(=O)Nc1ccc(F)c(F)c1F)C(=O)c1n[nH]c(=O)c2ccccc12	0.8	1.6	7.7	2.4	nt	6.6	i	0.644	1.7
O=S(=O)(Nc1ccc(F)cc1)c1ccc(S(=O)(=O)N2CCOCC2)cc1	0.3	nt	nt	nt	nt	-1.1	i	0.713	-5.0
CC(C)Nc1nc(N(c2ccccc2)c2ccccc2)nc(-n2ccnc2)n1	-1.3	nt	nt	nt	4.8%	nt	nt	0.768	1.8
COC(=O)C1(C)NC(c2ccccc2OC)C2C(=O)N(c3ccccc3)C(=O)C21 (configuration not stated)	-0.4	15.1	6.2	1.6	nt	0.6	i	0.673	-17.1
CCOC(=O)N1CCN(S(=O)(=O)N2CCCC(C(=O)NC(C)c3ccccc3)C2)CC1 (configuration not stated)	-0.8	4.3	4.0	2.5	nt	-0.8	i	0.664	0.2
CCC1(CC)Cc2ccccc2-c2nc(CN3CCOCC3)[nH]c(=O)c21	5.6	nt	nt	nt	2.7%	nt	nt	0.701	-3.6
c1ccc(C[C@H]2CN=C(Nc3ccccc3)N2CC2CCCCC2)cc1	-8.5	-32.4	-50.2	22.7	nt	-0.3	i	nt	-3.8
COc1ccc(NC(=O)Cc2coc3cc(C)ccc23)cn1	2.5	-2.1	-6.1	-0.5	-1.3%	-0.3	i	0.662	-15.5
Cc1ccc2oc(C(=O)N(C)Cc3cnccn3)c(C)c2c1	5.0	3.1	1.1	0.6	12.4%	-1.8	i	0.734	1.1
CC1(C)Cc2nc3sc4c(=O)n(CC(=O)NCc5ccco5)cnc4c3cc2CO1	1.0	nt	nt	nt	2.1%	nt	nt	0.731	0.2
C=CC[C@@H](Cc1ccc(F)cc1)C(=O)OC[C@@H]1CCCN1C(=O)[C@H](CC=C)CC(=O)NCCO	6.8	-7.7	-18.7	1.3	nt	-0.6	i	nt	-6.2
Cc1ccc(NC(=S)NNC(=O)CCn2cc(C)cn2)cc1	0.1	nt	nt	nt	18.8%	nt	nt	0.74	41.6
CCC(=O)N1CC(=O)N2[C@H](C1)[C@@H](c1ccc(C#CCC(C)C)cc1)[C@@H]2CO	nt	3.4	2.9	2.3	nt	-3.9	i	nt	nt
Cc1ccc(S(=O)(=O)Nc2ccc3c(c2)C(=O)N([C@@H](C)CO)C[C@@H](C)[C@@H](CN(C)S(C)(=O)=O)OCCCC[C@@H](C)O3)cc1	nt	-1.2	-4.7	-0.9	nt	3.0	i	nt	nt
CCC(=O)c1ccc(OCC(=O)N2CCN(c3ccccn3)CC2)cc1	4.7	-3.1	-2.3	-2.5	-5.9%	-1.8	i	0.661	-2.3
O=C(CNS(=O)(=O)Cc1ccccc1)NNc1ccccc1	2.2	18.1	21.8	-1.5	nt	-1.0	i	nt	nt
Cc1ccnc(NC(=O)CCC2COc3ccccc3O2)c1 (configuration not stated)	2.0	nt	nt	nt	-3.7%	nt	nt	0.676	1.0
COc1ccc(NC(=O)Cc2nnc(SCC(=O)NC3CCCCC3)n2C)cc1	2.2	4.1	1.0	-0.9	nt	-0.6	i	0.7	2.2
O=S(=O)(NCc1ccc(Cl)cc1)c1ccc(Br)cc1C1CC[C@@H](O)C1 (some centres not stated)	nt	-48.5	-78.4	-17.6	nt	-0.7	i	nt	nt
CCCCCC1CC(CC(=O)O)C(=O)O1 (configuration not stated)	0.8	nt	nt	nt	2.5%	nt	nt	0.696	-5.0
C[C@H]1CN([C@@H](C)CO)C(=O)c2cc(NC(=O)NC3CCCCC3)ccc2O[C@@H]1CN(C)C	nt	3.2	4.9	-0.7	nt	-2.6	i	nt	nt
COc1ccccc1NS(=O)(=O)c1cccc(-n2c(O)c(C=Nc3ccccc3C(=O)O)c3ccccc3c2=O)c1	-8.1	-24.6*	-3.9*	4.3*	?	0.9	nt	0.705	nt
COc1ccc(S(=O)(=O)Nc2ccc3c(c2)CC(=O)N([C@H](C)CO)C[C@@H](C)[C@@H](CN(C)C(=O)NC2CCCCC2)O3)cc1	nt	2.8	2.4	0.0	nt	-1.6	i	nt	nt
CCCC(=O)Nc1ccc2c(c1)C(=O)N(C)[C@@H]1CC[C@@H](CC(=O)Nc3cn(C)nc3C)O[C@@H]1CO2	nt	-16.9	13.2	12.6	nt	-0.2	i	nt	nt
COc1ccc(NC(=O)CSc2nc(C)cs2)c(OC)c1	-0.1	-0.1	-2.6	0.8	nt	1.2	i	0.622	-7.9
Cn1nc(-c2ccccc2)c(CSc2ccccc2Cl)c1Cl	-0.7	nt	nt	nt	-2.5%	nt	nt	0.737	-4.7
O=c1c2c(nc3c(-c4ccccc4)c[nH]n13)CCC2	3.0	nt	nt	nt	18.8%	nt	nt	0.681	57.2
COC(=O)c1ccc2c(=O)n(CC3CCCO3)c(SCC(=O)Nc3ccccc3Cl)nc2c1 (configuration not stated)	-1.2	nt	nt	nt	-1.1%	nt	nt	0.683	59.0
Cc1cccc(-c2cc(C(=O)Nc3sc(C)c(C)c3C(N)=O)c3ccccc3n2)c1	0.4	nt	nt	nt	-9.5%	nt	nt	0.768	-3.6
COc1ccc(C(=O)NNC2=CC(=O)CC(C)(C)C2)cc1	-0.3	nt	nt	nt	nt	nt	nt	0.69	24.3
CCOC(=O)c1[nH]c(C)c(C(=O)NCc2ccc(Cl)cc2)c1C	5.3	nt	nt	nt	13.1%	nt	nt	0.755	nt
COc1ccc(C)cc1N(C)C(=O)Cc1c(C(=O)O)n(C)c2ccccc12	2.8	-5.6	-5.6	-4.1	-12.9%	0.3	i	0.68	-3.7
CCCc1c(C(=O)N/N=C(\C)c2ccc(O)cc2)nnn1-c1nonc1N	-2.7	2.1	4.4	1.3	nt	-1.1	i	nt	-29.9
Cc1ccc(/C=C/C(=O)NN2CCN(C)CC2)cc1	-3.1	13.3	6.6	2.6	nt	-0.3	i	0.697	24.7
C[C@H]1CCCCO[C@H](CN(C)S(C)(=O)=O)[C@@H](C)CN([C@@H](C)CO)C(=O)c2cc(NC(=O)C3CCCCC3)ccc2O1	nt	0.9	-3.3	-1.0	nt	-20.8	i	nt	nt
CC(=O)c1ccc(N/C=C\C(=O)c2ccc(C)cc2)cc1	5.3	7.3	-1.1	1.9	-6.3%	-1.4	i	nt	-13.0
(next part)
SMILES	HNF4A DNA FP	rRNA inh HTS	rRNA inh HTS OD600	rRNA inh HTS RFP	Vif A3G	MLL AF4-AF9 inh	FGF22 binding	E coli growth	ALR H2O2 inh
Cc1ccc(S(=O)(=O)Nc2ccc3c(c2)C(=O)N([C@H](C)CO)C[C@H](C)[C@@H](CN(C)S(=O)(=O)c2cccs2)O3)cc1	nt	-3.0	-4.5	3.0	nt	-2.0	i	nt	nt
O=C(C[C@@H]1C[C@H]2c3cc(NC(=O)NC4CCCC4)ccc3O[C@H]2[C@H](CO)O1)NCc1ccc(Cl)cc1	nt	-4.0	-5.9	2.1	nt	0.5	i	nt	nt
C[C@H]1COC(=O)[C@@H](Cc2ccc(F)cc2)C/C=C\C[C@H](CC(=O)N(CCO)Cc2ccccc2)C(=O)N1	-2.0	-23.1	-19.6	9.6	nt	1.7	i	nt	-15.3
COc1ccccc1Nc1nc2ccccc2n1C	9.3	4.8	2.6	-0.8	?	-0.4	i	0.692	60.8

Screening results from PubChem.

This is a subset, so the mix of outcomes need not match the whole.
